# Menin-MLL FL inh = menin-MLL binding inhibition, fluorescein peptide; FP activity change, % at 61.4 µM; 290,000 tested, under 10 active; Fluorescence polarization, fluorescein-MLL peptide displacement from menin; inconclusive = falling polarisation curve, or a change in total fluorescence; inactive = total fluorescence flat and polarisation flat or rising; no compound was filed as active; the % refers to the polarisation; negative = inhibition;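 further: % of control where 0% means no effect; inhibitors lower the polarisation; unlabelled MLL peptide was the positive control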
# TRPML1 blocker = blocks the human TRPML1 channel. Q9GZU1. TRPML1-inducible cells, Ca2+ dye fluorescence, FDSS; stronger effect = lower value; inhibition of EC80 agonist-evoked calcium signal. activity change, negative = inhibition, % (concentration not given with the values). 390,000 tested, 0.02% active. AID 624415; in the data active means activity change below about -50%; inconclusive means about -30% to -50%; inactive means above about -30%;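 further: stimulus is agonist 54-4 at its EC80 concentration; on the % scale 0 is the no-effect control and ±100 the full control effect; compound concentration not given in the record; the text of the record puts the active cut at -80%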
# Target sequence (Q9GZU1 whole entry, looked up): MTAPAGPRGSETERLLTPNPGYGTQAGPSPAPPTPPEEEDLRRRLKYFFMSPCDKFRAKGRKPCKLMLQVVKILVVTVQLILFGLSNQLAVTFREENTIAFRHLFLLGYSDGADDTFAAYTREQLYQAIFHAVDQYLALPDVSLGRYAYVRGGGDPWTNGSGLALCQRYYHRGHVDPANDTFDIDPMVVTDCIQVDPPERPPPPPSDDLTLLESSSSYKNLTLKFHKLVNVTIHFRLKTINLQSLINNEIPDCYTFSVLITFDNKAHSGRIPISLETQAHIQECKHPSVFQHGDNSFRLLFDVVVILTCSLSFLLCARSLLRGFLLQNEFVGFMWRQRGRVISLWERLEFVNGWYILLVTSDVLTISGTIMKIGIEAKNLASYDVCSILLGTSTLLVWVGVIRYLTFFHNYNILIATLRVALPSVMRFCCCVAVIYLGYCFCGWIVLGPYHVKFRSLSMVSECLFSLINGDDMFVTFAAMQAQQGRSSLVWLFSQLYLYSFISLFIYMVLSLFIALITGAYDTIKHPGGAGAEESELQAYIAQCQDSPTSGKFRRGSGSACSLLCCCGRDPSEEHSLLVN
#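 TRPML1-DL cells, Tet-induced overnight (~16 h, 37 °C) at 1,500 cells/well, were loaded with Ca8 no-wash dye plus quencher for 45-90 min at room temperature. Compounds were pinned during FDSS kinetic reading; agonist 54-4 at EC80 (4 uM final) then added.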
# ClpP mod = qHTS Assay for Activators of ClpP; ATP-dependent Clp protease proteolytic subunit (Bacillus subtilis (strain 168)), P80244; purified B. subtilis ClpP, FRET peptide cleavage, 20 min; Potency, µM (titrated, usually from 57.5 µM), without a hit: top-dose activity change, negative = active; 340,000 tested, 1.9% active; AID 651965, 2013; active = well fitted falling curve with a large enough effect; inconclusive = small, poorly fitted or top-dose-only effect; inactive = no such curve, though single readings can be large or run the other way; further: potency means the concentration at half of the fitted maximal effect; the source files actives as falling curves though it sought activators and does not explain the sign; nearly all actives have a fitted effect of over 65% in size; many hits overshoot -100%
# Target sequence (P80244 whole entry, looked up): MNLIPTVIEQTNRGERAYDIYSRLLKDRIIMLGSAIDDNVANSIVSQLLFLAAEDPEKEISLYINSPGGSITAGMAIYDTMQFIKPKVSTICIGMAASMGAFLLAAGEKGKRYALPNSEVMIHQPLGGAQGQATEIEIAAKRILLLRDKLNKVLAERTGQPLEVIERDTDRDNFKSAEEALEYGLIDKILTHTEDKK
#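 Purified B. subtilis ClpP, 10 microg/mL final in Tris/HCl pH8 with KCl, BSA, glycerol and Tween-20, cleaved an Abz/nitrotyrosine-quenched decapeptide. Fluorescence (ex 320, em 430) was read at 0 and 20 min at room temperature. Delta was normalized to 5.8 microM ADEP and DMSO/no-enzyme controls.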
# gsp ag = activates gsp, the McCune-Albright syndrome mutation; AID 624287; gsp mutant cells, cAMP HTRF, 30 min; control for the full effect not named in the record; 340,000 tested, 0.13% active; Potency, µM (doses to about 76.9 µM), without a hit: top-dose activation (cAMP increase), most hits filed as activators; active = well fitted activation curve with a large enough effect; inconclusive = small, poorly fitted or top-dose-only effect, or another doubt; inactive = no such curve, though single readings can be large or run the other way; cell line not stated here;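 further: phosphodiesterase inhibitor Ro 20-1724 added with compounds to block cAMP breakdown; potency means the concentration at half of the fitted maximal effect; nearly all actives have a fitted effect of over 60% in size; about a fifth of the inactives were tested at one dose only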
#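 Cells in DMEM/10% FBS with G418 were pretreated with compounds in DMSO plus […] (300 uM stock) for 30 min at 37C. cAMP was measured by HTRF (cAMP-d2 plus anti-cAMP antibody-K) after 30 min at room temperature.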
# gsp antagonist = gsp mutant antagonism | gsp-mutant cells, cAMP HTRF, 30 min; control for the full effect not named in the record | 340,000 tested, 0.4% active | Potency, µM (highest dose often 76.9 µM), without a hit: at the top dose activity change, negative = inhibition, most hits filed as inhibitors; active = falling curve of any shape with a large fitted effect; inconclusive = falling curve, mostly with a smaller effect; inactive = flat or rising curve; cell line not stated here;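 further: intracellular cAMP measured with PDE inhibitor Ro 20-1724 present during compound exposure; potency means the concentration at half of the fitted maximal effect; on the % scale 0 is the no-effect control and ±100 the full control effect; nearly all actives have a fitted effect of over 65% in size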
#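 Cells, 2000/well, grown 16–24 h in DMEM 10% FBS with 0.5 mg/ml G418, then compounds plus […] (300 uM addition stock), 30 min at 37C. cAMP read by HTRF (cAMP-d2 and anti-cAMP antibody-K in lysis buffer) after 30 min RT.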
# TRPML1 agonist = human mucolipin-1 channel agonism; Q9GZU1; TRPML1-expressing cells, Ca2+ dye fluorescence, FDSS; host cell line not named in the record; reference of the full effect not given here; activation, % (concentration not given with the values); 410,000 tested, 0.12% active; in the data active = activation above about 50%; inconclusive = about 30% to 50%; inactive = below about 30%; further: 0% is about no effect; the text of the record puts the active cut at 80%
#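 Tetracycline-induced TRPML1-DL cells are seeded and incubated overnight before loading with a no-wash Ca2+ dye and quencher. Agonist activity is taken from the 110 s fluorescence read following compound pin-transfer on an FDSS, before EC80 54-4 challenge.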
# The depositor's hits bear a star; ? = inconclusive; nt = not tested or not shown; & = joins results of further samples; [ ] = dose if it differs, or a comment. No enrichment for hits (roughly 2.1% active in at least one column).
SMILES,Menin-MLL FL inh,TRPML1 blocker,ClpP mod,gsp ag,gsp antagonist,TRPML1 agonist
O=C(NCCCN1CCOCC1)c1onc(CSc2ccccn2)c1C(=O)NCCCN1CCOCC1,nt,-5,-0.6%,-5%,11%,0.5
COc1cccc(CN2CCC(n3nccc3NC(=O)C3CC3)CC2)c1,nt,5,0.9%,20%,17%,-0.4
Cc1noc(C)c1COc1ccccc1C(=O)N1CCN(S(=O)(=O)c2ccccc2F)CC1,nt,-2,-19%,-10%,-4%,0.6
Cc1cccc(NC(=O)C2CCN(S(=O)(=O)c3c(C)noc3/C=C/c3ccco3)CC2)n1,9.2,-7,-15%,-72%[inhibitor],-8%,1.3
Cc1cc(C)c(C#N)c(SCC(=O)C(C)(C)C)n1,3.5,-4,-4.6%,-3%,-5%,0.2
Cc1cccc(C(=O)NNS(=O)(=O)c2ccccc2[N+](=O)[O-])c1,-0.8,13,-1.8%,-24%,?,0.6
COc1ccc(C2c3c(oc4ccc(Cl)cc4c3=O)C(=O)N2CCN2CCOCC2)cc1 (centres undefined),9.6,16,nt,4%[15.4 µM],-10%,-0.4
O=C(N=Nc1c(O)[nH]c2ccc(Br)cc12)c1ccco1,nt,18,-2.9%,-25%,nt,-1.0
O=C(CCS(=O)(=O)c1ccc(Br)cc1)Nc1ccccc1Cl,7.2,-10,-0.5%,10%,10%,-0.5
Cc1c(OCC(N)=O)ccc2c(-c3ccccc3)cc(=O)oc12,11,-16,nt,7%[15.4 µM],-2%,0.6
COc1ccc(-c2oc3ncn4nc(-c5ccccc5OC)nc4c3c2-c2ccc(OC)cc2)cc1,nt,37,-24%,nt,nt,0.8
Cn1c(NC(=O)c2ccc(Cl)cc2)c(-c2ccccn2)c(=O)c2ccccc21,4.1,3,-5.2%,-38%[inhibitor],3%,-0.1
O=C(CSc1cccc[n+]1[O-])NC1CCCCC1,nt,-3,-2.5%,?,9%,0.8
CCOC(=O)c1csc(NC(=O)COc2ccc(Cl)cc2Cl)n1,0.2,5,-15%,?,4%,3.0
COc1ccccc1NS(=O)(=O)c1cc(C(=O)NC2CC(C)(C)NC(C)(C)C2)ccc1Cl,nt,0,0.8%,-13%,-15%,0.1
O=S(=O)(Nc1ccc2nc(-c3cccc(Cl)c3)oc2c1)c1ccccc1,nt,44,?,nt,nt,4.9
CCOC(=O)C1=C(C)N(c2ccc(C)cc2)C(=O)/C1=C\c1cccs1,1.8,11,-1.2%,-33%,-8%,-0.7
CCCCN(C(=O)c1sc2nc3n(c(=O)c2c1C)CCC3)c1c(N)n(CC(C)C)c(=O)[nH]c1=O,nt,45,-0.9%,?,9%,0.7
O=C1CN(C(=O)CN2C(=O)NC3(CCCCC3)C2=O)c2ccccc2N1,1.3,11,nt,0%[15.4 µM],8%,-0.6
O=C(CN1C(=O)c2ccccc2S1(=O)=O)NCc1ccccc1Cl,5.4,-8,-0.5%,1%,-4%,0.0
CCOC(=O)c1cnc2c(cnn2C)c1NCCC(O)C(F)(F)F (centres undefined),0.6,4,-17%,11%,3%,0.0
CNC(=O)C1C2C=CC3(O2)C1C(=O)N(C1CC1)C3C(=O)NCc1ccc(OC)cc1 (centres undefined),-5.8,-6,0.4%,3%,6%,0.6
CN(C(=O)COC(=O)C1CCN(S(=O)(=O)c2c(Cl)cccc2Cl)CC1)C1CCS(=O)(=O)C1 (centres undefined),nt,20,1.6%,-53%[inhibitor],-4%,-0.1
O=C1CCC(O)CCN1CCSc1ccccc1 (centres undefined),-5.8,24,1.7%&0.2%,7%,10%,0.5&-0.4
Cc1ccc2cc(CNC[C@H]3O[C@@H](n4cc(C)c(=O)[nH]c4=O)C[C@@H]3O)c(N3CCOCC3)nc2c1,nt,5,-8.7%,-26%,nt,0.1
COc1cc2c(cc1OC)CN(C(=O)c1ccc(-c3ccccc3)cc1)CC2,?,23,-0.9%,-31%[inhibitor],?,3.4
CCOC(=O)c1c(NC(=O)C2CCCCC2)sc2c1CCN(C(C)C)C2,-8.1,19,-10%,-49%[inhibitor],11%,0.4
Cc1[nH][nH]c(=O)c1C(c1ccc2c(c1)OCO2)c1c(C)[nH][nH]c1=O,-1.5,5,1.6%,?,0%,-0.5
Cc1ccc2nc(N3C(=O)C(O)=C(C(=O)c4ccc(C)o4)C3c3cccc(O)c3)sc2c1 (centres undefined),?,9,nt,11%[15.4 µM],4%,0.4
Cc1ccc(NC(=O)N2N=C(c3ccc(F)cc3)CC2c2ccc(F)cc2)cc1 (centres undefined),-0.8,31,-30%,3%,-6%,0.9
CCCCn1c(N)c(N(Cc2ccccc2OC)C(=O)CCC(C)C)c(=O)[nH]c1=O,nt,1,-1.6%,-8%[15.4 µM],9%,-0.5
CSc1nnc(C)c(/C=C/NOCc2ccc(Cl)cc2)n1,-3.0,2,nt,-59%,-13%,2.4
CCOC(=O)COc1ccc(Br)cc1/C=C1\SC(N)=NC1=O,6.8,-25,-5.7%,-34%[inhibitor],-22%,0.5
O=C(NCc1ccccc1F)C1CCCN(S(=O)(=O)N2CCOCC2)C1 (centres undefined),-0.1,15,-1.2%,-28%,4%,1.2
C/C(CCc1ccccc1)=N/NC(=O)C(=O)NCc1ccccc1,2.2,19,0.9%,-77%[inhibitor],1%,4.1
Cc1ccc(-c2nnc(SCC(=O)O)n2N)cc1,1.5,4,0.1%,?,2%,0.7
COc1cc(C)c(S(=O)(=O)NCc2ccc3c(c2)OCO3)cc1C,0.9,-8,-0.8%,-17%,-1%,0.6
COc1cccc(C2C(=O)c3ccccc3C2=O)c1,2.3,2,0.5%,-13%[15.4 µM],7%,-0.6
Cn1c(CSc2nnc(SCc3ccccc3)s2)nc2ccccc21,-1.1,6,-4.9%,5%,-14%,1.1
CNC(=O)CSc1n[nH]c(-c2cc(Cl)ccc2OC)n1,0.5,-4,nt,-6%[15.4 µM],2%,0.1
Nc1nc(C23CC4CC(CC(C4)C2)C3)cs1,0.7,2,1.4%,-7%,-10%,3.1
CC(C)CCNc1nc(N)c([N+](=O)[O-])c(N2CCCCCC2)n1,-2.0,-20,1.7%,13%,-18%,5.2
CCN(CC(=O)Nc1ccccc1OC)C(=O)CC1CC2CCC1C2 (centres undefined),nt,-17,35µM*,0%,2%,-0.9
O=C(c1ccco1)N1CCCC(c2nc3c(nnn3Cc3c(Cl)cccc3Cl)c(=O)[nH]2)C1 (centres undefined),10,9,nt,4%[15.4 µM],29%,-0.2
COc1ccc(-c2c(NC(=O)c3ccco3)n(-c3ccc(C)cc3)nc(C)c2=O)cc1,-1.5,-2,-7.5%,-29%,-11%,1.0
Cn1ncc(C#N)c1/N=C/N1CCCC1,-0.4,30,-0.2%,38%,5%,0.1
Nc1nc(CN2CCN(c3ccccc3)CC2)nc(Nc2ccc(Cl)cc2)n1,4.4,1,-1.4%,-11%,-4%,0.3
CC1(C)CC(=O)N(c2cc(Cl)ccc2Cl)C(=O)C1,-1.0,4,-1.1%,?,4%,0.7
CCN(CC)C(=O)CSc1nc2ccccc2c(=O)n1OC,1.5,-12,-0.6%,-18%,1%,-0.6
O=C(CSc1nnc(Nc2ccccc2)s1)NN1C(=O)NC2(CCCCC2)C1=O,4.2,-8,1.9%,2%,6%,0.4
COc1ccc(F)cc1S(=O)(=O)N1CCC2(CC1)OCCN2S(=O)(=O)c1ccccc1,nt,53,1.9%,-31%[15.4 µM],-17%,1.3
O=C(CSc1nccn1C1CCCC1)Nc1cc(C(F)(F)F)ccc1Cl,nt,35,2.1%,nt,nt,2.3
CSc1ccccc1NC(=O)CSCc1nc2sc(C)c(C)c2c(=O)[nH]1,nt,0,nt,-17%[15.4 µM],-1%,0.2
CCc1c(O)nc(SCC(=O)Nc2nc3ccccc3s2)n(-c2ccc(C)cc2)c1=O,7.1,-2,-2.8%,-13%,-5%,1.2
COc1ccc(NC(=O)CSc2ccc(-c3cccs3)nn2)c(OC)c1,-0.6,20,-11%,-27%[15.4 µM],-16%,-0.2
CCOC(=O)c1c(NC(=O)CS(=O)(=O)c2ccc(C)cc2)sc2c1CCC(C)C2 (centres undefined),nt,7,-14%,nt,nt,0.7
CCCCOc1ccc(/C=N/NC(=S)Nc2cc(C)ccc2C)cc1,-1.5,-17,-8.1%,-35%[inhibitor],-14%,1.0
CC(=O)c1cccc(NC(=O)C(C)OC(=O)Cc2n[nH]c(=O)c3ccccc23)c1 (centres undefined),nt,11,-0.6%,-4%,-12%,0.4
O=C(CCCN1C(=O)/C(=C/c2cccs2)SC1=S)Nc1ccccc1O,2.9,-15,nt,16%,-4%,0.9
C[C@@H]1CN([C@H](C)CO)C(=O)c2cccc(NS(=O)(=O)c3ccccc3)c2O[C@H]1CN(C)C,nt,0,-0.8%,nt,13%,-0.1

# Next part:
SMILES,Menin-MLL FL inh,TRPML1 blocker,ClpP mod,gsp ag,gsp antagonist,TRPML1 agonist
Nc1ccc(/C=C/C(=O)c2ccco2)cc1,?,-4,1.9%,-9%,0%,17
COc1cc2nc(CN(C)Cc3nc4ccccc4c(=O)[nH]3)[nH]c(=O)c2cc1OC,8.3,38,-11%,-4%,14%,-0.4
COc1ccc(CC2(CO)CCN(Cc3cnn(-c4ccccc4OC)c3)CC2)cc1,-2.7,-4,1.8%,12%,7%,-0.1
COC(=O)c1cc(NC(=O)CN(c2ccc(OC)cc2)S(=O)(=O)c2ccc(F)cc2)ccc1Cl,-1.5,36,0.4%,-12%,-17%,0.4
Cc1cc(C)c(C)c(S(=O)(=O)N2CCC(C(=O)Nc3ccc(S(=O)(=O)N4CCOCC4)cc3)CC2)c1C,nt,14,-2.5%,6%[15.4 µM],-8%,2.1
CC1Cc2ccccc2N1C(=O)c1cnc2sccn2c1=O (centres undefined),1.9,-2,-0.9%,-23%,5%,-0.2
CN(C[C@H](Cc1ccccc1)N(C[C@H](Cc1ccccc1)N(CC1(c2ccccc2)CC1)N=O)N=O)N=O,-2.8,-1,-1.7%,nt,-5%,0.9
Cc1ccc(S(=O)(=O)N(C)C)cc1NC(=O)COC(=O)CCC1CCCC1,nt,-1,-2.3%,0%,0%,0.7
Fc1ccccc1-c1nnc2c3ccccc3nc(N3CCOCC3)n12,2.4,-15,-0.9%,22%,3%,0.2
COc1ccc(Br)cc1/C=N/NC(=O)c1ccc(OC)c(OC)c1,2.9,1,nt,1%[15.4 µM],-39%,0.1
CC(=O)Nc1cc(C(=O)NCc2ccccc2)ccc1Sc1ccc(C)cc1,nt,4,3.8%,nt,nt,0.4

# Compound activity from PubChem BioAssay.
